# Compound activity: PubChem, Broad Institute
# NOMO-1 viab – STK33 inhibitor candidate reducing NOMO-1 cell viability; AID 2330; inhibition, % (test concentration not listed); NOMO-1 AML viability, CellTiter-Glo luminescence, 72 h; 7.5% of 37,000 active;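 active = most replicates above 80%; inconclusive = exactly half above 80%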;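 note: wells of about 30 µL received 25 nL stock; 0% = median of vehicle wells and 100% = reference inhibitor level; the first replicate is given; inactives centre near 10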
# An asterisk follows results filed as active; ? = inconclusive. A portion of the library, so the mix of outcomes need not match the whole.
SMILES,NOMO-1 viab
C[C@H](CO)N1C[C@H](C)[C@H](CN(C)Cc2ccc(C(=O)Nc3ccccc3N)cc2)Oc2ccc(NC(=O)Nc3cccc4ccccc34)cc2CC1=O,141*
COC(=O)c1ccccc1NC(=O)CN(C)S(=O)(=O)c1c(C)cc(C)cc1C,-1
C[C@@H]1CN([C@@H](C)CO)C(=O)c2cccc(NC(=O)NC3CCCCC3)c2O[C@@H]1CN(C)Cc1ccc(Oc2ccccc2)cc1,85*
COc1cc(OC)cc(C(=O)NCc2nc(-c3ccccc3)no2)c1,-25
C[C@@H]1CN([C@H](C)CO)C(=O)c2cc(NS(=O)(=O)c3cccs3)ccc2O[C@H]1CN(C)C,3
CC(C)NC(=O)Nc1ccc2c(c1)C(=O)N([C@@H](C)CO)C[C@H](C)[C@H](CN(C)Cc1ccc(-c3ccccc3)cc1)O2,9
C[C@H]1CN([C@@H](C)CO)C(=O)c2cc(NS(=O)(=O)c3ccc(F)cc3)ccc2O[C@H]1CN(C)Cc1ccc2c(c1)OCO2,93*
COc1ccc(S(=O)(=O)N(C)C[C@H]2Oc3c(NS(=O)(=O)c4ccc(Cl)cc4)cccc3C(=O)N([C@H](C)CO)C[C@H]2C)cc1,27
COc1ccc(S(=O)(=O)N(C)C[C@@H]2Oc3c(NC(=O)Nc4ccccc4)cccc3C(=O)N([C@@H](C)CO)C[C@H]2C)cc1,-7
O=C(O)Cc1cncc(Br)c1,16
OCCCn1c(-c2ccccc2)cn2c3ccccc3nc12,-8
COC(=O)c1ccc(Cl)c(NC(=O)COc2ccc(OC)cc2)c1,5
COc1ccc(CCNS(=O)(=O)c2cc(C)ccc2OC)cc1,19
NS(=O)(=O)c1ccc(CNC(=O)c2cc(-c3ccccn3)nc3ccc(Br)cc23)cc1,7
Cc1ccc(S(=O)(=O)Nc2cccc3c2O[C@@H](CN(C)S(C)(=O)=O)[C@@H](C)CN([C@@H](C)CO)C3=O)cc1,2
C[C@@H]1CN([C@H](C)CO)C(=O)c2cccc(NS(C)(=O)=O)c2O[C@@H]1CN(C)S(=O)(=O)c1ccc(Cl)cc1,12
C[C@H]1CN([C@@H](C)CO)C(=O)c2cccc(NC(=O)c3ccncc3)c2O[C@@H]1CN(C)S(=O)(=O)c1cccs1,2
C[C@H](CO)N1C[C@H](C)[C@H](CN(C)S(=O)(=O)c2cccs2)Oc2ccc(N(C)C)cc2CC1=O,6
C[C@H]1CN([C@@H](C)CO)C(=O)c2cccc(NC(=O)CCCCCC(=O)Nc3ccccc3N)c2O[C@@H]1CN(C)Cc1ccc(-c2ccccc2)cc1,134*
C[C@@H]1CN([C@H](C)CO)C(=O)Cc2cc(NS(=O)(=O)c3cn(C)cn3)ccc2O[C@H]1CN(C)Cc1ccc2c(c1)OCO2,-5
Nc1cc(=O)[nH]c(SCC(=O)Nc2ccc(F)cc2)n1,4
O=c1cc(CSc2n[nH]c(=O)n2-c2ccccc2)c2ccc(O)cc2o1,-10
Cc1ccc(S(=O)(=O)Nc2cccc3c2O[C@@H](CN(C)S(=O)(=O)c2ccccc2)[C@H](C)CN([C@H](C)CO)C3=O)cc1,30
CN1CCc2cc3c(cc2C2OC(O)c4c(ccc5c4OCO5)C21)OCO3 (centres undefined),14
Cc1ccc(S(=O)(=O)N(C)C[C@H]2Oc3ccc(NS(=O)(=O)c4ccc(F)cc4)cc3CC(=O)N([C@@H](C)CO)C[C@@H]2C)cc1,4
C[C@H](CO)N1C[C@H](C)[C@H](CN(C)S(=O)(=O)c2cn(C)cn2)Oc2ccc(NC(=O)Nc3ccc(C(F)(F)F)cc3)cc2C1=O,4
Cc1ccc(S(=O)(=O)N(C)C[C@@H]2Oc3ccc(NC(=O)C4CC4)cc3CC(=O)N([C@H](C)CO)C[C@@H]2C)cc1,31
Cc1ccc(Cn2nc(C)cc2C(=O)Nc2ccc(C)cc2)cc1,40
COc1ccc(NC(=O)Nc2cccc3c2O[C@@H](CN(C)CC2CCCCC2)[C@@H](C)CN([C@H](C)CO)C3=O)cc1,36
C[C@@H]1CN([C@H](C)CO)C(=O)c2cc(NC(=O)Cc3ccccc3)ccc2O[C@@H]1CN(C)Cc1ccc(C(F)(F)F)cc1,13
Cc1noc(C)c1NC(=O)Nc1ccc2c(c1)C(=O)N([C@H](C)CO)C[C@H](C)[C@H](CN(C)Cc1ccc(Cl)c(Cl)c1)OCCCC[C@@H](C)O2,53
CSc1sc(=S)sc1SC,-24
c1ccc2c(c1)[nH]c1nc(SCCN3CCCCC3)nnc12,10
COc1ccccc1NC(=O)CN(c1ccc(Br)c(C)c1)S(C)(=O)=O,-10
C[C@H]1CN([C@@H](C)CO)C(=O)c2cccc(NS(=O)(=O)c3ccccc3)c2O[C@H]1CN(C)CC1CCCCC1,-18
O=S(=O)(/N=S1/CCC2(C1)OCCO2)c1cc(C(F)(F)F)cc(C(F)(F)F)c1 (centres undefined),8
C[C@@H]1CN([C@H](C)CO)C(=O)c2cc(NC(=O)CCC(F)(F)F)ccc2O[C@@H]1CN(C)Cc1ccc(Oc2ccccc2)cc1,69
C[C@H](CO)N1C[C@H](C)[C@H](CN(C)C(=O)Nc2ccc(F)cc2)Oc2ccc(NS(=O)(=O)c3cn(C)cn3)cc2C1=O,9
COc1ccc(OCC(=O)Nc2ccc3oc(-c4cccc(Br)c4)nc3c2)cc1,5
C[C@@H]1CCCCO[C@H](CN(C)C(=O)Nc2ccc3c(c2)OCO3)[C@@H](C)CN([C@H](C)CO)C(=O)c2cc(NC(=O)Cc3ccccc3)ccc2O1,14
Cc1noc(C)c1S(=O)(=O)Nc1ccc2c(c1)CC(=O)N([C@@H](C)CO)C[C@H](C)[C@H](CN(C)Cc1ccc(C(F)(F)F)cc1)O2,83*
C[C@H]1CN([C@@H](C)CO)C(=O)c2cccc(NC(=O)c3nc4ccccc4s3)c2O[C@@H]1CN(C)Cc1ccc(Cl)c(Cl)c1,86*
COc1ccc(S(=O)(=O)Nc2cccc3c2O[C@H](CN(C)S(=O)(=O)c2ccc(F)cc2)[C@H](C)CN([C@H](C)CO)C3=O)cc1,19
C[C@H]1CN([C@@H](C)CO)C(=O)c2cccc(NC(=O)c3nc4ccccc4s3)c2O[C@@H]1CN(C)Cc1ccc(C(F)(F)F)cc1,69
Cc1noc(C)c1NC(=O)N(C)C[C@H]1Oc2ccc(NC(=O)NC(C)C)cc2CC(=O)N([C@H](C)CO)C[C@H]1C,14
CCCn1c2ccccc2c2nnc(SCC(=O)Nc3cccc4ccccc34)nc21,10
C[C@H]1CN([C@@H](C)CO)C(=O)c2cccc(NC(=O)CCCCCC(=O)Nc3ccccc3N)c2O[C@H]1CN(C)CC1CC1,13
Fc1cc(F)c(NC(=S)N2CCOCC2)c(F)c1,-17
CCOC(=O)c1cnc2c(OC)cccc2c1NC1CCCCC1,118*
Cc1ccc(OCC(O)Cn2c(C(C)C)nc3ccccc32)cc1 (centres undefined),-7
COc1ccc(NC(=O)Nc2ccc3c(c2)CC(=O)N([C@@H](C)CO)C[C@@H](C)[C@@H](CN(C)C(=O)Nc2ccc(C(F)(F)F)cc2)O3)cc1,38
CON(C)c1nc(Oc2ccc(=O)[nH]n2)nc(N(C)C)n1,24
C[C@@H]1CN([C@H](C)CO)C(=O)c2cccc(NS(=O)(=O)c3ccccc3)c2O[C@H]1CN(C)Cc1ccc(-c2ccccc2)cc1,19
C[C@H](CO)N1C[C@H](C)[C@@H](CN(C)Cc2ccc(Oc3ccccc3)cc2)Oc2ccc(NC(=O)Nc3cccc4ccccc34)cc2C1=O,104*
COc1ccc(NC(=O)N(C)C[C@H]2Oc3ccc(NC(=O)NC4CCCCC4)cc3C(=O)N([C@H](C)CO)C[C@H]2C)cc1,4
Cc1ccc(S(=O)(=O)CCSc2cccc(C(=O)Nc3ccccc3)c2)cc1,-3
O=C(Nc1cccc(-c2nc3ccccc3c(=O)o2)c1)C1CCCCC1,15
NC(=O)C(Cc1ccccc1)NS(=O)(=O)c1ccc2oc3ccccc3c2c1 (centres undefined),17
Cc1cc(C)c(C#N)c(Sc2ncnc3c2sc2nc(C)cc(C)c23)n1,6
Cc1ccc2c(c1)C(O)(CC(=O)c1cccnc1)C(=O)N2 (centres undefined),13

# Some of these compounds in order of length of the SMILES, ascending.
SMILES,NOMO-1 viab
Fc1cc(F)c(NC(=S)N2CCOCC2)c(F)c1,-17
NC(=O)C(Cc1ccccc1)NS(=O)(=O)c1ccc2oc3ccccc3c2c1 (centres undefined),17
Cc1noc(C)c1NC(=O)N(C)C[C@H]1Oc2ccc(NC(=O)NC(C)C)cc2CC(=O)N([C@H](C)CO)C[C@H]1C,14
COc1ccc(NC(=O)N(C)C[C@H]2Oc3ccc(NC(=O)NC4CCCCC4)cc3C(=O)N([C@H](C)CO)C[C@H]2C)cc1,4
COc1ccc(S(=O)(=O)Nc2cccc3c2O[C@H](CN(C)S(=O)(=O)c2ccc(F)cc2)[C@H](C)CN([C@H](C)CO)C3=O)cc1,19
Cc1noc(C)c1S(=O)(=O)Nc1ccc2c(c1)CC(=O)N([C@@H](C)CO)C[C@H](C)[C@H](CN(C)Cc1ccc(C(F)(F)F)cc1)O2,83*

# By substructure: the compounds so far containing a thiophene ring, fused or not (4)
SMILES,NOMO-1 viab
C[C@@H]1CN([C@H](C)CO)C(=O)c2cc(NS(=O)(=O)c3cccs3)ccc2O[C@H]1CN(C)C,3
C[C@H]1CN([C@@H](C)CO)C(=O)c2cccc(NC(=O)c3ccncc3)c2O[C@@H]1CN(C)S(=O)(=O)c1cccs1,2
C[C@H](CO)N1C[C@H](C)[C@H](CN(C)S(=O)(=O)c2cccs2)Oc2ccc(N(C)C)cc2CC1=O,6
Cc1cc(C)c(C#N)c(Sc2ncnc3c2sc2nc(C)cc(C)c23)n1,6

# Remaining list, next part.
SMILES,NOMO-1 viab
Cc1nnc(SCc2cc(=O)[nH]c(=S)[nH]2)s1,1
CCC(C)(NC(C)=O)C(=O)NC(Cc1c[nH]c2ccccc12)C(=O)NC(CCC(N)=O)C(=O)O (centres undefined),17
Cn1c(CC(=O)Nc2ccc(Cl)c(Cl)c2)n[nH]c1=S,18
CCc1c(C)sc(NC(=S)Nc2cnccn2)c1C(=O)OC,27
COc1ccc(CN(C)C[C@H]2Oc3ccc(NC(=O)Nc4ccccc4)cc3C(=O)N([C@@H](C)CO)C[C@H]2C)cc1,25
COc1cc(C(=O)NCc2ccccc2)cc(OC)c1OC,32
N#CCC(=O)Cc1ccccc1[N+](=O)[O-],15
C[C@@H]1CN([C@@H](C)CO)C(=O)c2cccc(NC(=O)c3nc4ccccc4s3)c2O[C@H]1CN(C)CC1CC1,45
C[C@@H]1CN([C@@H](C)CO)C(=O)c2cc(NC(=O)CCN3CCOCC3)ccc2O[C@H]1CN(C)Cc1ccncc1,19
C[C@H](CO)N1C[C@H](C)[C@H](CN(C)CC2CCCCC2)Oc2c(NC(=O)c3nc4ccccc4s3)cccc2C1=O,?
CCn1c(SCC(=O)Nc2ccc(F)c(Cl)c2)nnc1-c1cccc(C)c1,19
O=c1c(Cl)c(NCc2ccco2)cnn1-c1ccccc1,19
CC1CCc2c(sc3ncnc(SCC(=O)NCC4CCCO4)c23)C1 (centres undefined),15
COc1ccc(NC(=O)CSc2nnc(N)n2-c2ccccc2)cc1,2
C[C@H]1CN([C@@H](C)CO)C(=O)c2cc(NS(=O)(=O)c3ccccc3)ccc2O[C@H]1CN(C)C(=O)NC1CCCCC1,-8
C[C@H](CO)N1C[C@H](C)[C@@H](CN(C)S(=O)(=O)c2cccs2)Oc2c(NS(C)(=O)=O)cccc2C1=O,19
C[C@H]1CN([C@@H](C)CO)C(=O)Cc2cc(NC(=O)Nc3cccc4ccccc34)ccc2O[C@H]1CN(C)S(=O)(=O)c1cccs1,16
C[C@@H]1CCCCO[C@H](CN(C)Cc2ccncc2)[C@@H](C)CN([C@H](C)CO)C(=O)c2cc(NC(=O)Nc3cccc4ccccc34)ccc2O1,31
C[C@H](CO)N1C[C@H](C)[C@H](CN(C)Cc2ccccc2)Oc2ccc(NC(=O)Cc3ccccc3)cc2CC1=O,25
Cc1nn(CC(O)COc2ccc3c(c2)CCC3)c(C)c1C (centres undefined),25

# Entries above that contain a COOH group:
SMILES,NOMO-1 viab
O=C(O)Cc1cncc(Br)c1,16
CCC(C)(NC(C)=O)C(=O)NC(Cc1c[nH]c2ccccc12)C(=O)NC(CCC(N)=O)C(=O)O (centres undefined),17

# (more compounds)
SMILES,NOMO-1 viab
CC(=Nc1ccccc1C(F)(F)F)c1cccs1,7
Cc1ccccc1-c1nc(SCC(=O)Nc2ccc(Br)c(Cl)c2)n[nH]1,-5
CN(C)c1cc(O)c(C(=S)Nc2ccccc2)c(N(C)C)c1,31
COc1ccc(CN(C)C[C@H]2Oc3ccc(NC(=O)NC4CCCCC4)cc3C(=O)N([C@H](C)CO)C[C@@H]2C)cc1,10
C[C@@H]1CN([C@H](C)CO)C(=O)Cc2cc(NC(=O)Cc3cn(C)c4ccccc34)ccc2O[C@@H]1CN(C)S(C)(=O)=O,28
C[C@@H]1CN([C@H](C)CO)C(=O)Cc2cc(NC(=O)c3ccncc3)ccc2O[C@@H]1CN(C)S(=O)(=O)c1cn(C)cn1,-4
C[C@@H]1C[C@H]2OCC3=CCC[C@H]([C@]1(CC(O)c1ccoc1)C(=O)O)[C@]32CO (some centres undefined),120*
C[C@H](CO)N1C[C@H](C)[C@@H](CN(C)S(=O)(=O)c2ccc(F)cc2)Oc2c(NC(=O)C3CC3)cccc2C1=O,15
COC(=O)NC(Nc1cccc(C(F)(F)F)c1)C(=O)c1ccccc1 (centres undefined),37
CCc1c(C#N)c(SCC(=O)c2c(C)[nH]c3ccccc23)nc2c1C(=O)CC(C)(C)C2,-5
Cc1noc(C)c1NC(=O)N(C)C[C@@H]1Oc2ccc(NS(=O)(=O)c3ccc(F)cc3)cc2C(=O)N([C@@H](C)CO)C[C@H]1C,7
CC(C)(C)c1ccc(OCC(=O)NCCN2CCOCC2)cc1,10
CCOC(=O)CC1Sc2ccccc2N=C1SCC(=O)Nc1cccc(C(F)(F)F)c1 (centres undefined),126*
COc1cccc(NC(N)=O)c1,-4
